OX1R antag – antagonists of human orexin 1 receptor (OX1R). Orexin/Hypocretin receptor type 1 (Homo sapiens), O43613. OX1R-expressing cells, FRET antagonist read-out. inhibition, % at 6.6 µM. AID 485270, 2010. 1.8% of 330,000 active; in the data active = inhibition mostly above about 38%, no sharp cut-off; inactive = mostly below about 40%;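 note: 0% = agonist challenge alone and 100% = reference antagonist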
Target sequence (O43613 whole entry, looked up): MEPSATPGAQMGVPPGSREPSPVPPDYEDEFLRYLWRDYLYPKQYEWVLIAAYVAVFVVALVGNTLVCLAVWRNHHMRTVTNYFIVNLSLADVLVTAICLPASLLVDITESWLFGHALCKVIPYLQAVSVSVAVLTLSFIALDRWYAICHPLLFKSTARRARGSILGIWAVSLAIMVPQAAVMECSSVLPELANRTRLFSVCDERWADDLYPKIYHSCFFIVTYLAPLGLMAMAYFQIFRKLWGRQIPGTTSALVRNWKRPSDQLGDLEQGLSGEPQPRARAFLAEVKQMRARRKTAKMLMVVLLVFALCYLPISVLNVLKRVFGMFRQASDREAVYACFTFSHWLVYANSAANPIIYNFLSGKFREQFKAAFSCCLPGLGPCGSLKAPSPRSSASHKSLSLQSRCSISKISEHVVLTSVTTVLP
An asterisk follows results filed as active. An excerpt; most or all hits stand in other tables.

OX1R antag	molecule
17	COc1ccccc1OCC(=O)Nc1ccc(S(=O)(=O)Nc2cc(C)nc(C)n2)cc1
8	CC(C)c1ccc(NC(=S)NNc2ccc(Cl)c(C(=O)O)c2)cc1
27	C/C(=N\NC(=O)c1nnn(-c2nonc2N)c1CSc1ccccc1)c1ccco1
6	CCOc1ccc(NC(=O)CN2CCN(CC(=O)Nc3ccc(F)c(F)c3)CC2)cc1
6	COc1ccc(N(CC(=O)NCc2ccc(F)cc2)S(=O)(=O)c2c(C)n[nH]c2C)cc1
7	O=C(CSCc1ccc(Cl)cc1)N/N=C/c1c(Cl)cccc1Cl
23	O=C1CN(C(=O)c2ccccn2)c2ccccc2N1
38	Cc1ccc(S(=O)(=O)NNC(=O)c2sc3nc(C)cc(C)c3c2-n2cccc2)cc1
10	CCCN1CCN(C(=S)Nc2ccc(S(N)(=O)=O)cc2)CC1
2	Cc1cc(-n2c(C)cc(C(=O)CCl)c2C)no1
13	COC(=O)c1c(NC(=O)CSc2nnnn2C)sc(C)c1C
-4	N/C(=N\OC(=O)c1ccccc1F)c1ccc([N+](=O)[O-])cc1
12	CCCCSc1nnc(CSc2ncccn2)n1C
3	CC(C)/C=C/C(=O)N1CCC(N2CCC(C(=O)NCc3ccccn3)CC2)CC1
5	COc1cccc(-n2c(Cn3nc(C(F)(F)F)cc3C)n[nH]c2=S)c1
39	Cc1nc2ccccc2c(=O)n1NC(=O)/C=C/c1ccc(Br)cc1
13	COc1ccccc1C/C(N)=N/OC(=O)COc1ccc(C)cc1
9	O=c1[nH]c(/C=C/c2ccc(Br)cc2)nc2ccccc12
33	CCn1c(C)[n+](Cc2ccccc2)c2ccc(C(=O)OC)cc21
9	Cc1sc(NC(=O)c2ccco2)c(C(c2ccccc2)N2CCC(C)CC2)c1C (configuration not stated)

Next section:
OX1R antag	molecule
2	Cn1c(CNC(=O)CNC(=O)c2cccc(Cl)c2)cc(=O)n(C)c1=O
15	CCC1CC(C)(C(=O)Nc2ccc(S(N)(=O)=O)cc2)OC1=O (configuration not stated)
9	CCOC(=O)C1CCN(C(=O)c2cccc(NC(=O)C(CC)CC)c2)CC1
8	CC1Cc2ccccc2N1C(=O)c1ccc(Br)o1 (configuration not stated)
9	Cc1ccc(-n2nc3c(c2NC(=O)c2ccc4c(c2)OCO4)CS(=O)C3)cc1 (configuration not stated)
16	Cc1cccc(N2C(=O)CC(c3ccc(F)cc3)C3=C2COC3=O)c1 (configuration not stated)
7	Nc1nnc(SCC(=O)NC23CC4CC(CC(C4)C2)C3)s1
8	CCCc1cc(C(N)=O)c(NC(=O)c2cc(C)on2)s1
6	O=S(=O)(c1ccc2c(c1)OCCO2)N1CCc2ccccc21
14	O=C(Cn1ccc2ccccc2c1=O)NCC1COc2ccccc2O1 (configuration not stated)
2	O=S(=O)(NCC(c1ccco1)N1CCN(c2ccccc2F)CC1)c1ccc(F)cc1 (configuration not stated)
12	CC1CC(C)CN(c2ncnc3c2cnn3Cc2ccc(Cl)cc2)C1 (configuration not stated)
32	CC(C)CCNC(=O)c1cnn2c(C(F)(F)F)cc(-c3ccco3)nc12
11	CN1CCN(C(=O)c2sc(=S)n(-c3ccccc3)c2N)CC1
15	CCC(C)NC(=O)CSc1nc2c(sc(=S)n2Cc2ccco2)c(=O)n1-c1ccccc1 (configuration not stated)
14	CC1(C)CC(NC(=O)CC(c2ccccc2)c2ccccc2)CC(C)(C)N1
21	O=C1CN(C(=O)c2ccc3nc(Cc4cccc(Cl)c4)oc3c2)CCN1
27	COc1ccc(NC(=O)C(=O)N2N=C(C(C)C)CC2(O)C(F)(F)F)cc1 (configuration not stated)
-1	Cc1cc(C)nc(SCC(=O)Nc2nonc2N)n1
22	O=C(NNc1nc2ccccc2s1)Nc1ccc(F)cc1

Among those listed so far, 6 have a furan ring, fused or not:
OX1R antag	molecule
27	C/C(=N\NC(=O)c1nnn(-c2nonc2N)c1CSc1ccccc1)c1ccco1
9	Cc1sc(NC(=O)c2ccco2)c(C(c2ccccc2)N2CCC(C)CC2)c1C (configuration not stated)
8	CC1Cc2ccccc2N1C(=O)c1ccc(Br)o1 (configuration not stated)
2	O=S(=O)(NCC(c1ccco1)N1CCN(c2ccccc2F)CC1)c1ccc(F)cc1 (configuration not stated)
32	CC(C)CCNC(=O)c1cnn2c(C(F)(F)F)cc(-c3ccco3)nc12
15	CCC(C)NC(=O)CSc1nc2c(sc(=S)n2Cc2ccco2)c(=O)n1-c1ccccc1 (configuration not stated)

Sorted by molecular weight (lowest first): some entries from above.
OX1R antag	molecule
8	CCCc1cc(C(N)=O)c(NC(=O)c2cc(C)on2)s1
7	Nc1nnc(SCC(=O)NC23CC4CC(CC(C4)C2)C3)s1
12	CC1CC(C)CN(c2ncnc3c2cnn3Cc2ccc(Cl)cc2)C1 (configuration not stated)

4 entries from above, with each value named:
CN1CCN(C(=O)c2sc(=S)n(-c3ccccc3)c2N)CC1
  OX1R antag: 11

CC1Cc2ccccc2N1C(=O)c1ccc(Br)o1 (configuration not stated)
  OX1R antag: 8

Nc1nnc(SCC(=O)NC23CC4CC(CC(C4)C2)C3)s1
  OX1R antag: 7

O=S(=O)(NCC(c1ccco1)N1CCN(c2ccccc2F)CC1)c1ccc(F)cc1 (configuration not stated)
  OX1R antag: 2

(next part)
OX1R antag	molecule
7	CC(NC(=O)c1ccc(CS(C)(=O)=O)cc1)c1cccc2ccccc12 (configuration not stated)
30	COc1ccccc1C(C)NC(=O)CCOc1cccc(C)c1 (configuration not stated)
2	Cc1cc(Cl)ccc1NC(=S)N1CCN(C(=O)c2ccco2)CC1
24	CC(=O)Nc1sc2c(c1C(c1ccccc1)N1CCOCC1)CCCC2 (configuration not stated)
-4	CCCc1cc(=O)[nH]c(SCC(=O)NC(=O)c2ccccc2)n1
16	CCOc1ccccc1-n1nnnc1SCC(=O)Nc1cc(C)on1
13	CCOc1ccc(-n2c(SCC(=O)Nc3ccc(Br)cc3)nc3n[nH]c(C)c3c2=N)cc1
7	CCOC(=O)c1ccc(NC(=S)N2CCN(Cc3ccccc3)CC2)cc1
4	NC(=O)CNc1ncc(C(F)(F)F)cc1Cl
28	COC(=O)c1ccccc1NC(=O)C1CC(=O)N(C2CCCCC2)C1 (configuration not stated)
62	NC(N)=NS(=O)(=O)c1ccc(N/C=C\C(=O)c2ccncc2)cc1
18	CCN(CC)S(=O)(=O)c1ccc2oc(C(=O)NC3CC3)c(C)c2c1
-3	Nc1nc(-c2ccc(Oc3ccccc3)cc2)cs1
-3	Cc1ccc(NC(=O)c2cnn(-c3ccccc3)c2C)cc1C
13	CCCCCCC(=O)Nc1ccc(C(=O)N/N=C/c2cccnc2)cc1
26	COc1cc(NC(=O)CSc2nc(C)c(C)c(C)n2)cc(OC)c1
1	CCOC(=O)Oc1ccc2c(=O)c(Oc3cc(C)cc(C)c3)coc2c1
7	O=c1c2c3c(sc2ncn1/N=C/c1ccccc1)CCCC3
9	CC1CCCC(C)N1C(=O)CSCc1ccc(Cl)cc1 (configuration not stated)
16	CC(=O)Nc1ccc(C23CC4CC(CC(C4)C2)C3)cc1

More results
OX1R antag	molecule
1	NNC(=S)NC1CCCCCCCCCCC1
1	NC(=O)c1ccc(NC(=O)Cn2c(=O)n(-c3ccccc3)c(=O)c3oc4ccccc4c32)cc1
13	O=C(CN1C(=O)NC(Cc2c[nH]c3ccccc23)C1=O)Nc1cccc(S(=O)(=O)N2CCOCC2)c1 (configuration not stated)
0	C=CCn1cc(/C=N/Nc2nc3ccccc3[nH]2)c2ccccc21
13	COC(=O)c1ccc(C2C(C(=O)c3ccc(C)o3)=C(O)C(=O)N2c2cc(C)on2)cc1 (configuration not stated)
1	C=CCn1c(Cc2csc(N)n2)nnc1SCc1ccc(C(=O)OC)cc1
4	Cc1cc(-c2ccccc2)nc(Oc2ccc(C(C)(C)C)cc2)c1S(C)(=O)=O
12	O=C(O)CCc1ncc(C(F)(F)F)cc1Cl
11	O=C(NNC(=O)c1ccccc1O)c1ccc(Br)cc1
10	CCOC(=O)CC1C(=O)NCCN1C(=O)c1c(F)cccc1F (configuration not stated)
11	CCN1CCN(S(=O)(=O)c2ccc3c(c2)OCCO3)CC1
11	COc1ccccc1C1CC(=O)Nc2cc(C)c(C)cc21 (configuration not stated)
19	CCCC1=Nc2cc(C(=O)NCc3ccco3)ccc2Sc2ccccc21
26	COc1ccc(OC)c(NC=C2C(=O)OC3(CCCCC3)OC2=O)c1
23	CC(NC(=O)c1ccccc1NC(=O)c1ccccc1)C(=O)N1CCOCC1 (configuration not stated)
16	COC(=O)C(Cc1ccc(O)cc1)NC(=O)C(C)NC(=O)c1ccc(C(C)(C)C)cc1 (configuration not stated)
6	CCn1c2ccccc2c2cc(CNCCCN3CCOCC3)ccc21
15	COc1cc2c(cc1NS(=O)(=O)N1CCCCC1)oc1ccccc12
37	Cc1cccc(NC(=O)CN(C)S(=O)(=O)c2cccc3cccnc23)c1
9	O=C(c1cc2cc(Br)ccc2s1)N1CCOCC1

(continued)
OX1R antag	molecule
14	Cc1ccc(NC(=O)COC(=O)c2cc(Cl)ccc2[N+](=O)[O-])c(C)c1
11	CCn1c(=S)sc2c(=O)n(CC(=O)Nc3ccccc3)c(C)nc21
16	CCOC(=O)N1CCN(C(=O)c2cc3c(ccc4ccccc43)oc2=O)CC1
7	CC(C)NC(=O)CSc1nnc(-c2ccc3ncccc3c2)n1C
16	CCn1c(C(=O)NCc2cccnc2)cc2sc(Cl)cc21
22	CCCCNc1ccccc1C(=O)OCC(=O)Nc1ccc(S(N)(=O)=O)cc1
5	CCc1cccc(NS(=O)(=O)c2ccc3c(c2)NC(=O)CC(=O)N3)c1
14	COc1cc(NC(=O)c2ccc(-c3csc(C)n3)cc2)c(OC)cc1Cl
14	COc1ccc(C(=O)NC(=S)Nc2nc(-c3ccc(OC)c(Br)c3)cs2)cc1Br
4	Cc1ccc(C)c2c1c1ccccc1n2C
12	N#Cc1ccc(C23CC4(C2)[C@H](CN(Cc2ccc(-c5ccccc5)cc2)[C@@H]4c2ccccc2)C3c2ccc(Cl)nc2)cc1 (some centres not stated)
23	CCCCn1nc2cc(C(=O)NCc3cc(C(F)(F)F)cc(C(F)(F)F)c3)ccc2c1OC
13	CSc1ccc(Cl)c(C(=O)N2CCOc3ccccc32)c1
22	Cc1ccc(C(=O)OCC(=O)Nc2cc(S(C)(=O)=O)ccc2Cl)cc1S(=O)(=O)N1CCCCC1
28	O=c1c2cc(N3CCOCC3)ccc2[nH]c(=S)n1CCCN1CCCC1
5	COc1ccc(CNC(=O)C2CCN(c3nn4c(=O)cc(C)nc4s3)CC2)cc1
10	O=C(NCNC(=O)c1ccccc1)c1ccccc1
7	CCN(CC)CCn1c(-c2ccccc2)nc(=S)c2c1CC(C)(C)OC2
17	O=C(Cn1cc2c(n1)CCCCC2)NC1CCCCCC1
6	COc1ccc(-c2cc(C(=O)N3CCN(C(c4ccccc4)c4ccccc4)CC3)no2)cc1OC

Following part:
OX1R antag	molecule
5	COCC(=O)Nc1ccc(Br)cc1
19	O=C(Cn1ccc([N+](=O)[O-])n1)NCCc1c[nH]c2ccccc12
12	CNC(=S)Nc1cccc2[nH]ncc12
27	Cc1ccc2oc(-c3ccccc3)c(C(=O)O)c(=O)c2c1
4	CCC(=O)NCC(c1cccs1)N1CCOCC1 (configuration not stated)
19	Cc1ccsc1C(=O)OCC(=O)N1CC(=O)Nc2ccccc21
11	Cc1ccc(CNC(=O)CCNS(=O)(=O)c2ccc(Br)s2)cc1
12	Cc1ccc(C)c(OCC(=O)N/N=C/c2ccsc2)c1
10	O=C(CCNC(=O)Cn1ccc2ccccc2c1=O)NCCc1ccccc1Cl
-3	Clc1cc(Br)ccc1OCCCNCc1ccccc1
11	CN(C(=O)C1CCN(S(=O)(=O)c2cccs2)CC1)C1CCCCC1
19	CN1CCN(C(=O)c2cc3sccc3n2CC(=O)c2ccccc2)CC1
8	O=C(CNS(=O)(=O)c1ccccc1)OCC(=O)c1ccc(F)cc1
9	O=C(Cn1c(=O)oc2cc(S(=O)(=O)N3CCCC3)ccc21)N1CCc2ccccc2C1
7	O=C(Cc1ccc(F)cc1)N/N=C/c1ccccn1
6	COc1cc(CN(C(=O)c2ccco2)c2ccc(C)cc2)ccc1O
5	COc1ccc(CCN(Cc2nc3ccccc3c(=O)[nH]2)C(=O)C2CC2)cc1
29	O=C(Nc1ccccc1C(=O)N/N=C/c1ccco1)c1ccccc1Cl
17	CCOC(=O)CN1C(=O)/C(=C/c2c(F)cccc2Cl)Oc2ccccc21
15	Cc1ccc(C(=O)NCc2ccccc2)c(F)c1F

Grouped by structure: those above containing a COOH group
OX1R antag	molecule
8	CC(C)c1ccc(NC(=S)NNc2ccc(Cl)c(C(=O)O)c2)cc1
12	O=C(O)CCc1ncc(C(F)(F)F)cc1Cl
27	Cc1ccc2oc(-c3ccccc3)c(C(=O)O)c(=O)c2c1

Remaining list, next part:
OX1R antag	molecule
24	Cc1cc(C)n(-c2nc(O)cc(=O)[nH]2)n1
43	CCc1nc(SCc2nc3ccccc3[nH]2)c2oc3ccccc3c2n1
10	O=C(c1cc(N2C(=O)C3C4CCC(C4)C3C2=O)ccc1Cl)N1CCCCCC1 (configuration not stated)
15	COc1ccc(/C=c2/sc3n(c2=O)C(c2ccccc2OC)C2=C(N=3)c3ccccc3CC2)cc1O (configuration not stated)
-3	Cc1ccc(-n2ncc3c(NNC(=O)c4ccco4)ncnc32)cc1Cl
7	CCC(c1nnnn1C(C)(C)C)N1CCN(Cc2ccccc2OC)CC1 (configuration not stated)
21	O=C(NCCCn1ccnc1)c1csc2ccccc12
11	CC(C)n1nnnc1-c1cccc(Cl)c1
5	COc1ccc(-n2ccnc2SCC(=O)NC2CCCC2)c(OC)c1
22	CNc1nc(-c2ccc(Cl)cc2)cs1
34	COc1ccc2c(c1)CC(C1(O)C(=O)Nc3ccccc31)C2=O (configuration not stated)
16	O=C(c1ccccc1)N1CCC(CC2CC(c3cccc(Br)c3)=NO2)(C(=O)NCC2CCCCC2)CC1 (configuration not stated)
12	Cc1cc(C)c(C(=O)N(CCN(C)C)CC2CCCN(Cc3ccccc3F)C2)o1 (configuration not stated)
23	Cc1cc(C)cc(NC(=O)C(OC(=O)c2ccc([N+](=O)[O-])o2)c2ccccc2)c1 (configuration not stated)

Screening results from PubChem BioAssay.
